Screens (PubChem)
N370S GC mod – qHTS Assay for Inhibitors and Activators of N370S glucocerebrosidase as a Potential Chaperone Treatment of Gaucher Disease; Lysosomal acid glucosylceramidase (Homo sapiens), P04062; AID 2101, 2009; Potency, µM (titrated, usually from 59.4 µM), without a hit: at the top dose activity change, negative = inhibition, most hits filed as inhibitors; 0.092% of 330,000 active; N370S GC spleen homogenate, 4MU-glucoside fluorescence;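 further: 0% = full enzyme activity and -100% = no enzyme basal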
FEN1 inh – qHTS Assay for the Inhibitors of Human Flap endonuclease 1 (FEN1); Recombinant FEN1 flap cleavage, fluorescence, 15 min; Potency, µM (highest dose often 114 µM), for the others: at the top dose activity change, negative = inhibition, actives largely listed as inhibitors; 0.35% of 390,000 active; further: nearly all actives have a fitted effect of over 65% in size
Target sequence (P39748 whole entry, looked up): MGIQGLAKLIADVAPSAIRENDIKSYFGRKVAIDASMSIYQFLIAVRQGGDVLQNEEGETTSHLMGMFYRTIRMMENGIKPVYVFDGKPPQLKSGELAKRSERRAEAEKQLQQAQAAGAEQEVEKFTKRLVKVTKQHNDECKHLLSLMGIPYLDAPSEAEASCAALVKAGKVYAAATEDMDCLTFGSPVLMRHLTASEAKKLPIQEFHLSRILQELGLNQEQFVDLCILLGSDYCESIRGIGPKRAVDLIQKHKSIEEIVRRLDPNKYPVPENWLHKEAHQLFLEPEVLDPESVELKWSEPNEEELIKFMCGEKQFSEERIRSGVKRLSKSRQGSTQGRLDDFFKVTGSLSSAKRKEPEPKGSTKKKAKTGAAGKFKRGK
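Read-out was taken twice, immediately and after 15 min, following addition of 50 nM substrate to 10 nM FEN1 that had sat with test compound for 15 min at room temperature. Curves came from a four-parameter Hill model.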
An asterisk follows results filed as active; u = inconclusive; x = no result given; & = joins results of further samples; [ ] = another dose, or the depositor's remark. The call rests on the fitted dose curve; in most records, active means well fitted curve in the direction sought with a large enough effect; inconclusive means small, poorly fitted or top-dose-only effect, or another doubt; inactive means no such curve, though single readings can be large; an effect the other way counts as inactive or inconclusive. Unless noted, on the % scale 0 is the no-effect control and ±100 the full control effect; potency means the concentration at half of the fitted maximal effect.

SMILES	N370S GC mod	FEN1 inh
CCS(=O)(=O)N1CCN=C1SCc1cccc(F)c1	5%	8%
CCCN(CC1CCCO1)C(=O)CCc1nnc(-c2cc(C)on2)o1 (centres undefined)	7%	-2%
CCc1ccc(CNC(=O)C2CC(=O)N(CCc3ccc(C)cc3)C2)cc1 (centres undefined)	0%	1%
CC1CN(C2CCN(C(=O)c3cccc(Cl)c3)CC2)CC(C)O1 (centres undefined)	-12%	0%
COc1ccc(OC)c(S(=O)(=O)N2CCC(C(=O)NC3CC3)CC2)c1	-3%	-4%
CCOC(=O)c1[nH]c2ccccc2c1NC(=O)Nc1ccc(OC)cc1	8%	-5%
c1ccc2cc(C3=NCCN3)ncc2c1	-4%	x
Cn1c(C(O)c2ccccc2)nc(Cl)c1Cl (centres undefined)	4%	7%
O=C(CN1C(=O)C2C3C=CC(C3)C2C1=O)N1CCc2ccccc2C1 (centres undefined)	-6%	-4%
Cc1ccc2nc(N/C(N)=N/S(=O)(=O)c3ccc([N+](=O)[O-])cc3)nc(C)c2c1	-8%	-4%
CCc1cccc(N2C(=O)CSC23C(=O)Nc2ccccc23)c1 (centres undefined)	x	18%
OC(CCCCN1CCCCC1)c1ccccc1 (centres undefined)	4%	10%
O=C(Nc1cccc(C(F)(F)F)c1)C1C2CC3OC(=O)C1C3C2 (centres undefined)	1%	1%
CCNC(=O)c1ccc2c(c1)nc1n2CCCCC1	x	17%
CCN(CC)c1ccc(C2C3CCCCC3(O)CCN2CC(=O)N2CCCCC2)cc1 (centres undefined)	2%	-4%
COc1ccc(OCc2nnc(SCC(N)=O)n2N)cc1	12%	10%
CNC(=O)Nc1ccccc1C(=O)NCc1ccccc1	15%	-6%
CC(C)(C)C(=O)NC(=S)Nc1ccc(Cl)c(C(=O)O)c1	-12%	-19%
O=C1[C@H]2[C@@H](c3ccc(F)cc3)N3C(=O)N(c4cccc(F)c4)C(=O)[C@@]3(Cc3ccccc3)[C@H]2C(=O)N1C1CCCCC1	-3%	8%
O=C(O)c1cc(S(=O)(=O)N2CC3CC3C2C(=O)O)c(Cl)cc1Cl (centres undefined)	-4%	18%
O=C(CSc1nncc2ccccc12)Nc1cccc(O)c1	-3%	-10%
CCOCCCNC(=O)c1ccc2c(c1)OCO2	0%	0%
CCOC(=O)c1nc(Nc2ccccc2C)c2ccccc2n1	9%	-16%&-1%
O=C(NCc1ccccn1)c1cc(-c2ccc(Cl)cc2)nc2ccccc12	7%	-2%
O=C(NC(NC(=S)Nc1ccccc1)C(Cl)(Cl)Cl)c1cccc(Cl)c1 (centres undefined)	2%	-19%
CN(CCc1ccccn1)Cc1ccc(Cl)cc1Cl	6%	-3%
CC(=O)Nc1ccccc1NC(=O)CC(C)(C)C	-1%	8%
CCCCn1ccnc1C(=O)c1ccc(S(=O)(=O)N(CCOC)CCOC)cc1	-5%	-11%
O=C(CCC(=O)c1cccs1)NC(c1ccccc1)c1ccccc1	x	13%
CCOc1ccc(CC(=O)NNC(=S)NC)cc1Br	-17%	-8%
O=C(CSCc1ccccc1)N1CCN(c2ccccc2)CC1	12%	5%
Cc1cc(Cl)ccc1NC(=O)COC(=O)c1c(C)noc1C	x	0%
CN(c1ccccc1)S(=O)(=O)c1cc(C(=O)NCCCn2ccnc2)ccc1Cl	x	-8%
Nc1cc(-c2ccccc2)nn1Cc1ccc(Cl)cc1	u	-1%
COc1ccc(Cl)cc1NC(=O)C1Cc2ccccc2CN1S(C)(=O)=O (centres undefined)	2%	-7%
CCN(CC)S(=O)(=O)c1ccc(/C=C/C(=O)Nc2ccc(Br)cc2F)cc1	30%	-18%

Exported with two lines to a compound: part of the list above
Second line of a record: N370S GC mod, FEN1 inh
> Nc1cc(-c2ccccc2)nn1Cc1ccc(Cl)cc1
→ u, -1%
> COc1ccc(Cl)cc1NC(=O)C1Cc2ccccc2CN1S(C)(=O)=O (centres undefined)
→ 2%, -7%
> CCN(CC)S(=O)(=O)c1ccc(/C=C/C(=O)Nc2ccc(Br)cc2F)cc1
→ 30%, -18%

Carrying on.
SMILES	N370S GC mod	FEN1 inh
Cc1c(Cl)cccc1NC(=O)CSc1cc(-c2ccccc2)ncn1	x	-5%
Cc1cc(C)c2sc(N(CCCN(C)C)C(=O)COc3ccc(Cl)cc3)nc2c1	-25%	-20%
COc1cccc(/C=C/C(=O)OCC(=O)N2CCN(S(=O)(=O)c3ccc(Cl)cc3)CC2)c1	0%	8%
Cc1ccc(N2CCN(S(=O)(=O)c3c(C)noc3C)CC2C)cc1 (centres undefined)	-1%	10%
COC(=O)CCCC1=CC2=CC(=O)C(C)(OC(=O)CCc3ccccc3)C(=O)C2=CO1 (centres undefined)	10%&-10%&1%	u
Cc1cc(NC(=O)C2C3C(=O)N(Cc4ccc(Cl)cc4)C(C(=O)NC4CCCCC4)C34C=CC2(C)O4)no1 (centres undefined)	6%	2%
CCc1nc2ccccc2c(C(=O)Oc2cccc3cccnc23)c1C	6%	-22%
Cc1ccccc1NC(=O)N(CCc1nc2ccccc2[nH]1)Cc1ccccc1	-24%	5%
CCC(=O)Nc1nonc1-c1nc2ccccc2n1N(C(=O)CC)C(=O)CC	4%	17%
CCOc1ccccc1N(CC(=O)Nc1ccc2c(c1)OCO2)S(C)(=O)=O	6%	13%
O=C(O)CCCN1C(=O)C2C3CC(C2C1=O)C1C(c2ccccc2)c2sc(=O)n(-c4ccccc4)c2SC31 (centres undefined)	16%	-1%
O=C1CN(C(=O)c2ccccc2)C(c2ccc(F)cc2)c2cc(Br)ccc2N1 (centres undefined)	-12%	3%&5%
CCOC(=O)c1ccc2c(c1)N(Cc1cccc(OC)c1)C(=O)c1ccccc1S2(=O)=O	x	5%
C=CCN1N=C(/C=C/c2ccc(C)cc2)CCC1=O	0%	-1%
CN(Cc1ccccc1)C(=O)CSc1nc2ccccc2c(=O)n1Cc1ccco1	7%	0%
CCNC(=O)Nn1c(C)nnc1C	9%	-11%
COc1cccc(NC(=O)CSc2nc(-c3ccccc3Cl)nc3c2Cc2c(CO)cnc(C)c2O3)c1	x	17%
CCOC(=O)c1sc(NC(=O)CSc2nc3c(c(-c4ccc(OC)cc4)c2C#N)CCCC3)c(C#N)c1C	30%	-12%
O=S(=O)(c1ccc2nc(COc3ccccc3)[nH]c2c1)N1CCOCC1	-20%	3%
O=C(/C=C/c1ccccc1)NCC(=O)N/N=C/c1ccco1	1%	3%
Cc1nc2nc(CSc3nnc(C)s3)cc(=O)n2[nH]1	3%	11%&-6%
COc1ccc(-n2c(SCC(=O)N3CCN(c4ccccc4)CC3)nc3c(c2=O)SCC3)cc1	0%	9%
CC1CCN(c2oc(-c3ccccc3Cl)nc2C#N)CC1	9%	4%
Cc1cc(C)n(-c2nnc(NC34CC5CC(CC(C5)C3)C4)nn2)n1	5%	16%

Arranged by count of non-hydrogen atoms (ascending): 3 of the compounds above.
SMILES	N370S GC mod	FEN1 inh
CCNC(=O)Nn1c(C)nnc1C	9%	-11%
Cc1nc2nc(CSc3nnc(C)s3)cc(=O)n2[nH]1	3%	11%&-6%
O=S(=O)(c1ccc2nc(COc3ccccc3)[nH]c2c1)N1CCOCC1	-20%	3%

Complete entries as entered above:
Cc1ccc(N2CCN(S(=O)(=O)c3c(C)noc3C)CC2C)cc1 (centres undefined) in the list: N370S GC mod = -1%; FEN1 inh = 10%
Cc1cc(C)c2sc(N(CCCN(C)C)C(=O)COc3ccc(Cl)cc3)nc2c1 in the list: N370S GC mod = -25%; FEN1 inh = -20%

Additional entries.
SMILES	N370S GC mod	FEN1 inh
CCO[C@@H]1OC(C(=O)N2CCN(Cc3ccccc3)CC2)=C[C@H](c2cn(C(C)=O)c3ccccc23)[C@H]1CCCO	17%	2%
COc1ccc(Cn2c(=O)[nH]c3cc(OC)c(OC)cc3c2=O)cc1	-8%	-1%
Cc1ccccc1NC1=NC(=S)N(c2ccccc2)C12CCOC(C)(C)C2 (centres undefined)	6%	0%
CNc1ccccc1-n1ccc(-c2ccccc2)n1	7%	-2%
Cn1c(C(=O)NC2CC2)cc(=O)n(C)c1=O	7%	8%
Fc1ccc(/C=N/Nc2ncnc3nc[nH]c23)cc1F	23%	-5%
Cc1cc(C)c(NC(=O)c2oc3ccccc3c2COc2ccccc2)c(C)c1	2%	1%
CCn1cc(C(=O)NCc2ccccc2)c(=O)c2cc(S(=O)(=O)N3CCCCCC3)ccc21	x	7%
CN(C)c1oc(COc2ccccc2F)nc1C#N	1%	1%
O=C(COC(=O)c1ccc(S(=O)(=O)N2CCOCC2)cc1)Nc1ccccc1F	x	2%
O=C(CCc1ccccc1)NC1CC(=O)N(c2cccc(F)c2)C1 (centres undefined)	x	2%
O=C(Nc1ccc2c(c1)OCCO2)c1cccc(Cl)c1Cl	-1%	-13%

Single values from the results shown:
FEN1 inh result of `O=C(COC(=O)c1ccc(S(=O)(=O)N2CCOCC2)cc1)Nc1ccccc1F` stands at 2%
FEN1 inh result of `Cc1ccccc1NC1=NC(=S)N(c2ccccc2)C12CCOC(C)(C)C2` (centres undefined) stands at 0%
FEN1 inh result of `Cn1c(C(=O)NC2CC2)cc(=O)n(C)c1=O` stands at 8%

(further entries)
SMILES	N370S GC mod	FEN1 inh
Nc1ccc(S(=O)(=O)NC(Cc2ccccc2)C(=O)O)cc1 (centres undefined)	-1%	2%
Cc1cc(C)n(C(=O)CNC(=O)c2cccc(Br)c2)n1	3%	13%
CCCSc1ccc2nc(NC(=O)OC)[nH]c2c1	u	-2%&2%
COc1ccccc1CN1C[C@@H]2C[C@@H](c3ccc(Cl)cc3)N3CCC[C@@]23C1=O	-4%	-1%
CN(C)c1ccc(CNc2nc(-c3ccco3)nn2S(=O)(=O)c2ccc3ccccc3c2)cc1	x	-7%
CCOc1ccc(N2CC(c3nc4ccccc4n3CCCCOc3ccc(OC)cc3)CC2=O)cc1 (centres undefined)	x	-12%
Cc1nn(C)c(C(=O)Nc2ccn(C34CC5CC(CC(C5)C3)C4)n2)c1[N+](=O)[O-]	6%	-16%
Cc1noc(C)c1CCC(=O)N1CCCC(CCC(=O)NCc2ccc(F)c(F)c2)C1 (centres undefined)	-10%	u
O=C(CN1C(=O)CSc2ccc(S(=O)(=O)N3CCOCC3)cc21)NCc1cccnc1	-5%	6%
COc1ccccc1N1CCN(C(=O)c2c(C)oc3ncn(C)c(=O)c23)CC1	x	-8%
Cc1ccc(OCCSc2nc(C)c(Cc3ccccc3)c(=O)[nH]2)cc1	x	-1%
Cc1cccc(NC(=O)Cn2cc(S(=O)(=O)c3ccc(F)cc3)c(=O)c3cc4c(cc32)OCO4)c1	x	5%
COc1ccccc1N1CCN(S(=O)(=O)c2c[nH]c(=O)[nH]c2=O)CC1	0%	3%
CC(=O)Nc1ccc(Br)cc1C(=O)C(=O)O	-4%	2%
O=C(COc1cc(Cl)c(Cl)cc1Cl)N1CCN(c2ccccn2)CC1	-19%	15%
COc1ccc(CCNC(=O)CCCOc2ccc(C)cc2)cc1OC	9%	2%
C=CCNC(=S)NC(=O)c1ccc(C)c(Br)c1	10%	-23%
CCc1ccc(OCC(=O)O/N=C(\N)c2ccncc2)c(Br)c1	-1%	-12%
O=C(O)c1ccccc1-c1nc2ccccc2c(=O)[nH]1	-4%	-10%
CSC1=NCCN1S(=O)(=O)c1ccc(C)cc1	25%	22%
Cn1nc(C(=O)Nc2cccc(C(=O)NC3CC3)c2)c2ccccc2c1=O	x	-4%
CCOC(=O)N1N=C(c2ccccc2)CC1(O)C(F)(F)F (centres undefined)	1%	4%
CN(C(=O)CCNC(=O)Cn1cnc2ccccc2c1=O)c1ccc(F)cc1	-2%	3%
CCCNCC(O)COc1ccccc1C(=O)CCc1ccccc1 (centres undefined)	-10%&-5%&-4%&-10%&-6%	-17%
Cn1c(SCc2cccnc2)nc2cccnc21	-8%[2.35 µM]	0%
CCN(CC)c1ccc(NC(=O)c2ccc(S(=O)(=O)N3CCOCC3)cc2)cc1	x	1%
CC(C)CSc1nsc(N)n1	4%	-5%
CC(C)c1nc(SCC(=O)c2ccc(F)cc2)c2ccccc2n1	-14%	-8%
CCOC(=O)COc1ccc(C)cc1-c1ccno1	6%	-9%
Cc1c(-n2cc(C(=O)c3cc(Br)ccc3O)cc(C#N)c2=O)c(=O)n(-c2ccccc2)n1C	-1%	-6%
CC(C)(C)c1ccc(C(=O)NCCOc2ccccc2)cc1	2%	-12%
CCOc1ccc(C(C)NC(=O)c2cc(=O)[nH]c3ccccc23)cc1OCC (centres undefined)	-2%	1%
CC(=O)N1c2ccccc2NC2=C(C(=O)CCC2)C1c1ccc(F)cc1 (centres undefined)	-29%	4%
O=C(N=C1SC2CS(=O)(=O)CC2N1Cc1ccccc1Cl)C1CCCO1 (centres undefined)	1%	24%
Cc1c(Cl)cnn1CC(=O)NC1C(=O)N2C(C(=O)O)=C(CSc3nnnn3C)CSC12 (centres undefined)	8%	-21%
Cc1nn(CCC(=O)N2CCN(c3ccccc3F)CC2)c(C)c1S(=O)(=O)N1CCCC1	x	13%
Cc1cccc(NC(=O)CCn2cnnn2)c1	-13%	-1%&13%
COc1ccccc1OCCC(=O)OCC(=O)Nc1ccc2c(c1)OCCO2	x	-5%
c1ccc2[nH]c(NCCCN3CCOCC3)nc2c1	6%	-8%
CC(C)(C)c1csc(Sc2ccc([N+](=O)[O-])cn2)n1	-1%	2%
Cc1ccc(-c2nc3ccccc3c(=O)n2Cc2ccccc2)cc1	29%	-10%
O=C(Nc1ccccc1C(=O)NC(Cc1ccc(O)cc1)C(=O)O)c1ccccc1 (centres undefined)	28%	-9%
COC(=O)C1CSc2[nH]c(=O)sc2C1c1ccc(OC)c(OC)c1 (centres undefined)	-5%	1%
CCOc1ccccc1OCC(=O)Nc1ccc(N2CCCCC2)cc1	u	-2%

Not all compounds are listed; most or all hits stand in other tables.
